# Screens: PubChem BioAssay, Fisher Drug Discovery Resource Center
# NPYLR7 agonist: mosquito NPYLR7 agonism; HEK293T NPYLR7/Galpha15, GCaMP6s calcium fluorescence; activation, % at 10 µM; 270,000 compounds, 0.15% hits; in the data active = activation above about 40%;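 also: 0% = vehicle and 100% = reference agonist at the receptor; some compounds past the cut are filed as inactive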
# NPYLR7 agonist max-min: further read-out of NPYLR7 agonist, marked with its call; activation, %; measured here: Max-Min RFU normalised activation; some inactives read as strong as hits;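 span of the calcium signal over five minutes; 0% = vehicle and 100% = native peptide agonist; compound fluorescence can raise it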
# Numbers without * were called inactive; & = joins results of further samples.
SMILES,NPYLR7 agonist,NPYLR7 agonist max-min
COc1cc2c(cc1OC)C(c1ccccc1Cl)N(C(=O)c1c(F)c(F)c(F)c(F)c1F)CC2 (stereo not drawn),6.4,4.4
CC1=C(C(=O)Nc2c(F)c(F)c(F)c(F)c2F)C2(CCCCC2)OC1=O,5.9,2.9
O=C(NCCN1CCOCC1)[C@@]1(OCc2ccccc2F)CC(OCc2ccc(C(F)(F)F)cc2)[C@H](O)[C@H](O)C1 (stereo partly drawn),6.7,9.7
CC(C)CNCCSCc1ccco1,-3.6,-8.2
Nc1ccc(-n2cnc3ccccc32)cc1,4.8,2.0
Cc1ccc(-c2nc(CN3N=NC4C(=O)N(c5ccc(C(C)C)cc5)C(=O)C43)c(C)o2)cc1 (stereo not drawn),0.6,-8.8
CNCCCC12CCC(c3ccccc31)c1ccccc12,-4.2&-4.7&-4.7&-6.1&3.6,-10.6&-9.7&-10.3&-13.8&-13.0
CCCCCc1ccc(C(=O)CSc2nnc(NC(=O)C3CCC3)s2)cc1,25.5,24.7
CC(C)c1cc(C2CCN(C(=O)CCn3cnc4ccccc4c3=O)CC2)[nH]n1,8.3,-3.0
O=C(NCCN1CCOCC1)[C@@]1(OCc2ccc(F)cc2)CC(OCc2cccc(OC(F)(F)F)c2)[C@H](O)[C@H](O)C1 (stereo partly drawn),4.7,13.2
N#CC(c1ccccc1)N1CCN(C(=O)C=Cc2cccs2)CC1 (stereo not drawn),5.3,4.2
CC(C)(NS(=O)(=O)c1cccc(Cl)c1F)c1ccccc1,-0.7,1.7
CC(C)(C)c1ccc(-c2cc(N3CCN(Cc4cccnc4)CC3)n3nccc3n2)cc1,-9.4,-12.7
C#CCN1C(=O)[C@]2(C)[C@H](c3ccccc31)[C@@H](C(N)=O)CN2C(=O)CCC=C,1.2,4.2
Cc1[nH]ncc1CCCNC(=O)Nc1ccc(Cl)c(Cl)c1,-1.7,-5.1
COc1ccc(Oc2cc(N3CCN(C(=O)C4CCCCC4)C(C)C3)ncn2)cc1 (stereo not drawn),-15.7,-12.6
Cc1cc(C)c2nc(NC(=O)C(C)C)sc2c1,1.1,-6.5
O=S(=O)(c1cccs1)N1CCN(CCc2ccccc2)CC1,13.5,6.6
O=C(NC12CC3CC(CC(C3)C1)C2)C1(c2ccccc2)CC1,1.3,0.9
CCOC(=O)C1C(=O)C=C(c2ccc(OC)c(OC)c2)CC1c1ccccc1F (stereo not drawn),2.9,4.9
O=C(Cn1nc2c(N3CCOCC3)nccn2c1=O)Nc1ccccc1Br,-6.8,-8.9
COc1ccc(OC)c(NC(=O)c2c(-c3ccccc3Cl)noc2C)c1,2.1,3.1
CCN(CC)S(=O)(=O)c1cc(C)c(C)cc1Br,-2.6,9.6
COC(=O)c1nnn(-c2ccc(Br)cc2)c1C(=O)OC,5.2,7.9
c1cc2c(cc1CN1COc3cc4c(cc3C1)OCN(Cc1ccc3c(c1)OCO3)C4)OCO2,0.0,-1.1

# Reformatted with bars between the fields: part of the list above
mol | NPYLR7 agonist | NPYLR7 agonist max-min
COc1ccc(OC)c(NC(=O)c2c(-c3ccccc3Cl)noc2C)c1 | 2.1 | 3.1
COc1cc2c(cc1OC)C(c1ccccc1Cl)N(C(=O)c1c(F)c(F)c(F)c(F)c1F)CC2 (stereo not drawn) | 6.4 | 4.4

# Reformatted: results already given.
smiles | NPYLR7 agonist | NPYLR7 agonist max-min
CC1=C(C(=O)Nc2c(F)c(F)c(F)c(F)c2F)C2(CCCCC2)OC1=O | 5.9 | 2.9
O=C(NCCN1CCOCC1)[C@@]1(OCc2ccccc2F)CC(OCc2ccc(C(F)(F)F)cc2)[C@H](O)[C@H](O)C1 (stereo partly drawn) | 6.7 | 9.7
CC(C)CNCCSCc1ccco1 | -3.6 | -8.2

# (cont.)
SMILES,NPYLR7 agonist,NPYLR7 agonist max-min
COc1ccc(-n2ncc3c2CC(C)(C)CC3NC(=O)CN2CCOC2=O)cc1 (stereo not drawn),5.8,3.3
Cc1ccccc1C1(CNC(=O)c2ccccc2)CCOCC1,3.8,1.8
Cc1noc2ccc(CN3CCC(c4cc(CC(=O)O)[nH]n4)CC3)cc12,16.2,11.9
Cc1nc(-c2cccc(-c3ccc(C(C)N4CCOCC4)cc3)c2)no1 (stereo not drawn),10.0,2.1
Cc1ccc(NC(=O)C2(C)CCN2Cc2ccc(-c3ccccc3)o2)cc1O (stereo not drawn),-2.7,-1.3
O=C(Nc1nnc(-c2ccc3c(c2)OCO3)s1)C1CCCN1C(=O)c1cc(Cl)cc(Cl)c1 (stereo not drawn),0.6,15.5
CNc1cncc(-c2c(C)cccc2C)n1,2.7,1.6
COC(=O)C(NC(=O)C12CC3(C)CC(C)(CC(C)(C3)C1)C2)C(C)C (stereo not drawn),2.8,1.1
CC(=O)N(C(C)=O)c1c(-c2ccccc2)nnn1-c1ccccc1,1.8,2.6
CCOC(=O)C1CCN(C(=O)c2cccc(CSc3nc(-c4ccccc4)cc(N4CCN(Cc5ccc6c(c5)OCO6)CC4)n3)c2)CC1,1.9,12.4
CC1Oc2ccc(NC(=O)CCc3cccs3)cc2NC1=O (stereo not drawn),-3.5,-0.4
O=C(Cc1c[nH]c2ccccc12)NNS(=O)(=O)c1cccc(F)c1,-9.0,-11.8
O=C(NC(=O)C1CCNCC1)c1cc2c(s1)CS(=O)(=O)C2,5.4,3.2
N#Cc1cc(NCCC(=O)NCc2ccncc2)nc2ccccc12,1.8,1.4
O=C(NC(C1CC1)C1CC1)N1CCCC(c2nc3ccccc3o2)C1 (stereo not drawn),-21.0,-24.5
COc1cc(C)ccc1-n1c(CCC(=O)NCC2CCCO2)cc2c1-c1ccccc1OC2 (stereo not drawn),0.7,-2.7
COc1ccc(C2SCC(=O)N(CC(=O)NCCN(C)C)c3c2c(C(C)(C)C)nn3-c2cccc(Cl)c2)cc1OC (stereo not drawn),18.2,3.3
Cc1nc(CN2CCCC2c2nc3ccc(F)cc3[nH]2)cs1 (stereo not drawn),0.8,2.4
CN(Cc1nccs1)Cc1cn(-c2ccccc2)nc1-c1ccc2c(c1)OCO2,-20.0,-24.7
CCc1ccccc1N1C(=O)N(Cc2cc(OC)ccc2C(=O)OC)c2ccccc2S1(=O)=O,2.0,3.6
O=C(O)c1ccccc1-c1nccc(C2CCCC2)n1,6.0,6.3
COC(=O)C1c2sc(=O)[nH]c2SC2C(=O)N(c3ccc(Cl)cc3)C(=O)C21 (stereo not drawn),18.3,9.6
COc1ccc(Br)cc1-c1nnc2n(CCC(C)C)c3c(=O)[nH]c(=O)n(C)c3n12,3.7,-0.2
CC1C=CCC2C(=O)N(c3ccc4c(c3)CCC4)C(=O)C12 (stereo not drawn),4.5,3.8
CCCc1c(C(=O)N2CCN(c3nccc(-c4ccc(OCC)cc4)n3)CC2)cnn1-c1ccc(Cl)cc1,23.0,9.2

# In a second layout: 7 of the compounds above
structure	NPYLR7 agonist	NPYLR7 agonist max-min
CCOC(=O)C1CCN(C(=O)c2cccc(CSc3nc(-c4ccccc4)cc(N4CCN(Cc5ccc6c(c5)OCO6)CC4)n3)c2)CC1	1.9	12.4
CC1Oc2ccc(NC(=O)CCc3cccs3)cc2NC1=O (stereo not drawn)	-3.5	-0.4
O=C(Cc1c[nH]c2ccccc12)NNS(=O)(=O)c1cccc(F)c1	-9.0	-11.8
O=C(NC(=O)C1CCNCC1)c1cc2c(s1)CS(=O)(=O)C2	5.4	3.2
N#Cc1cc(NCCC(=O)NCc2ccncc2)nc2ccccc12	1.8	1.4
O=C(NC(C1CC1)C1CC1)N1CCCC(c2nc3ccccc3o2)C1 (stereo not drawn)	-21.0	-24.5
COc1cc(C)ccc1-n1c(CCC(=O)NCC2CCCO2)cc2c1-c1ccccc1OC2 (stereo not drawn)	0.7	-2.7

# (cont.)
SMILES,NPYLR7 agonist,NPYLR7 agonist max-min
Cc1cccc(CN(Cc2ccccc2)Cc2ncc[nH]2)n1,0.7,-3.2
CCOC(=O)C1=C(O)/C(=C\c2c(O)cc(OC)cc2OC)SC1=Nc1ccccc1Cl,5.3,6.4
Cc1nn(-c2ccc(C(C)(C)C)cc2)c(C)c1CCC(=O)N1CCc2ccccc2C1,-8.3,-13.9
CC(Sc1nc2ccccc2c(=O)n1-c1ccc(Cl)cc1)C(N)=O (stereo not drawn),-5.9,-9.3
CCCn1ncc(CN2CCCC(CO)(Cc3ccccc3)C2)c1C (stereo not drawn),6.7&12.4,0.7&3.7
Cc1nnc(SCc2ccc(C(=O)NCc3ccc(F)cc3)cc2)n1-c1ccc(F)cc1,15.8,13.3
COc1cc(C(=O)O)cc(CN2C(=O)c3ccccc3C2=O)c1OC,2.1,0.0
O=C(NCc1cccc(F)c1)C(C1CCCC1)N1CCN(C(=O)COCc2ccccc2)CC1 (stereo not drawn),-3.9,2.4
O=C(NC(c1ccccc1)c1ccccc1)c1cc(C2CC2)n(C2CCS(=O)(=O)C2)n1 (stereo not drawn),9.4,5.0
c1ccc2c(c1)NCCCS2,1.7,2.6
O=C(c1cccc(CSc2nc(Cl)cc(N3CCCC3)n2)c1)N1CCN(c2ccccc2F)CC1,13.7,10.0
Cc1ccc(-n2nnc3c(=O)n(Cc4ccc(C(F)(F)F)cc4)cnc32)cc1,6.7,9.7
CCC(C)N(Cc1cc(Cl)ccc1OCc1nc(CO)cs1)C(=O)c1ccccc1F (stereo not drawn),-4.6,-4.0
CC(=O)NCc1ccc(C(=O)Nc2ccc(C)c(F)c2)cc1,-25.5,-27.4
COc1ccc(NS(=O)(=O)c2ccc(Cl)s2)c(OC)c1,0.8,4.9
COc1ccc(CCN2CCCC(CN(C)C(=O)c3cnc(C)cn3)C2)cc1 (stereo not drawn),1.4,-0.8
Cc1ccc(/C=N\NC(=O)c2ccccc2Oc2ccccc2)o1,-0.2,-13.6
CC(NC(=O)c1cncn1-c1ccc(-c2ccc(F)c(F)c2)cc1)c1ccc(Br)cc1 (stereo not drawn),23.1,27.7
Clc1ccc(C2CN(c3nc4ccccc4o3)CCO2)cc1 (stereo not drawn),11.7,6.9
Cc1cccc(-n2c(SCc3nc(C(=O)NCCN4CCCCC4)cs3)nnc2-c2cccs2)c1,7.7,10.8
Nc1ccc2oc(-c3ccc(-c4nc5ccc(N)cc5[nH]4)cc3)nc2c1,-5.3,-4.0
COC(=O)c1ccc(C(=O)N2CCCC(Nc3ccc(C(C)C)cc3)C2)nc1 (stereo not drawn),3.3,-0.1
O=C(Cc1cn2ccsc2n1)NC(c1ccc2c(c1)OCCO2)C1CC1 (stereo not drawn),-4.2,-5.4
Cc1cn(C)c(CC(=O)N[C@@H]2C[C@@H]3C[C@H]([C@H]2C)C3(C)C)c1C(=O)N[C@@H]1C[C@@H]2C[C@H]([C@H]1C)C2(C)C,12.6,-1.8
Cc1noc(C)c1S(=O)(=O)N1CCCC(CCc2ccc(F)c(F)c2)C1 (stereo not drawn),-0.4,-5.6

# New compounds follow:
SMILES,NPYLR7 agonist,NPYLR7 agonist max-min
CCCCOc1ccc(-c2nc(C=Nc3ccc(OC)c(Cl)c3)c(O)o2)cc1,7.2,1.5
O=c1oc(Cl)c(Cl)c2ccccc12,0.8,-23.6
Cc1ccc(-c2nnc(CNCC3CCCN(S(C)(=O)=O)C3)o2)n1C (stereo not drawn),16.8&14.8,0.3&12.4
CC1C(=O)N(c2ccccc2-c2ccccc2)CCN1C(=O)c1ccc(F)cc1 (stereo not drawn),1.1,5.6
Cc1ccc(-c2nc(CN(C)Cc3cccc4ccccc34)c(C)o2)o1,4.8,1.0
O=C(Nc1cc(-c2cc3ccccc3o2)[nH]n1)C1CC1,2.2,2.7
O=S(=O)(NCc1ccccc1)NCc1ccc(-c2ccccn2)s1,-0.4,-6.1
Cc1cc2c(cc1C)OC(C(=O)Nc1n[nH]c(-c3ccoc3)n1)C2 (stereo not drawn),0.5,1.4
COCCNC(=O)C(NC(=O)c1ccc(F)cc1)C1CCN(C(=O)c2cccs2)CC1 (stereo not drawn),5.1,3.7
COCCCN(Cc1c(-c2ccc(F)cc2)noc1N1CCN(C)CC1)C(=O)c1ccccc1OC,0.3,-0.2
CNc1ncccc1C(=O)N(CC#Cc1ccccc1)C1CCCC1,-4.7,-7.4
Cc1ccccc1C(=O)Nc1ccnn1C1CCN(C(=O)NC(C)(C)C)CC1,7.6,5.1
O=C(CSc1nnnn1C1CC1)NN1C(=O)NC2(CCCCC2)C1=O,9.2,14.5
CCCSc1ncccc1C(=O)Nc1cc(-c2onc3c2CCCC3)ccc1Cl,4.1,16.8
COc1ccc(NC(=O)Nc2cc(-c3cn4nc(OC)ccc4n3)ccc2C)c(OC)c1,-0.4,-1.0
COc1cccc(C)c1NC(=O)c1cccc(CN2CCC[C@@H]2C(N)=O)c1,3.8,1.4
CCCc1cncnc1N1CCN(C2CCN(Cc3ccco3)CC2)CC1,3.9,2.8
CCOC(=O)N1CCN(C(=O)C2CCN(c3nn4c(=O)cc(C)nc4s3)CC2)CC1,6.2,4.5
COCc1c(C(=O)N2CC[C@@H](c3ccc4c(c3)OCO4)[C@H](O)C2)noc1C,-1.3,12.8
O=[N+]([O-])c1cc2c(cc1C=Nc1ccc(Cl)cc1C(F)(F)F)OCO2,4.5,3.0
COc1ccc(CC(N)c2csc(Nc3cnccn3)n2)cc1 (stereo not drawn),7.2,6.9
Cc1ccc(-c2cc3c(=O)n(Cc4nc(-c5ccc(OC(C)C)cc5)oc4C)ccn3n2)cc1,-1.0,-6.5
CC(C)CC(=O)N1CCSC12CCN(C(=O)c1cc(Cl)cc(Cl)c1)CC2,11.0,23.9
CN(C)c1cc[nH]c(=S)c1C#N,2.0,1.7
Cc1nn(CC(=O)NC2CCCC2)c(=O)c2c1cnn2-c1ccccc1,9.1,6.7

# Continuation.
SMILES,NPYLR7 agonist,NPYLR7 agonist max-min
Cc1cccc(Cn2cnc3c(nnn3Cc3ccc(Cl)cc3)c2=O)c1,6.9,5.4
CC(=O)[C@@H]1[C@@H](c2ccccc2I)C(C#N)(C#N)[C@H]2C=Cc3ccccc3N12,13.5,7.9
Cc1onc(-c2ccccc2Cl)c1C(=O)Nc1ccc(Oc2ccccc2)cc1,2.9,1.6
CCc1ncc2c(n1)CN(C(=O)c1cccc3cc(C)oc13)C2,4.0,1.1
CCn1c(CC2CCN(C(=O)CCN3CCCCO3)CC2)nn(C)c1=O,0.9,-1.1
CCOc1ccc(OCCCOc2ccc([N+](=O)[O-])cc2)cc1,10.6,18.4
CC1CCN(S(=O)(=O)NCc2ccc3c(c2)OCCO3)CC1,12.4,4.9

# A portion of the library; rates above refer to the full screens.
